From PubChem
MT1-MMP act inh: MT1-MMP (human) activation inhibition; actives 0.061% (n = 360,000); HT1080 RFP-PRO-GFP cells, GFP/RFP ratio fluorescence, overnight; percent of plate control window, DMSO zero; GFP/RFP ratio change, % at 20 µM; P50281; AID 651647;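 active = GFP/RFP ratio change of at least 30% with cell ATP level not reduced by more than half and red fluorescence within 50% of control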; note: strong numbers were not always called active
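Assay system: HT1080 cells carrying an RFP-PRO-GFP reporter | Dosing: Single dose of 20 µM compound, 1% DMSO final | Incubation: Cells overnight before dosing, compound overnight, 37 °C, 5% CO2 | Evaluation: GFP/RFP fluorescence ratio | Control set: DMSO and RFP-L50D-GFP cell wells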
eIF4H inh: inhibitors of RNA binding by human eIF4H. Q15056. eIF4H fluorescence polarization binding assay. inhibition, % at 35 µM. actives 0.94% (n = 290,000). AID 2012;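 active = 50% or more with normal probe brightness, or confirmed in later tests; inconclusive = above 50% with abnormal brightness, or retests that disagree; inactive = below 50% or failed in later tests; about a fifth of its hits are not listed in these tables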;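 note: calls also rest on retests at 20 µM and on dose response follow-up; 0% = protein and probe with vehicle and 100% = probe without protein; strong numbers were not always called active; many hits fall short of the cut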
CSC inhib: cancer stem cell inhibition. inhibition, % at 7.5 µM. cancer stem cell-like cells viability, luminescence. AID 2717. actives 1.1% (n = 300,000);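 active = mean at 75% or more and at least half the replicates too; inconclusive = mean and replicates disagree; tested in HMLE shEcad cells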;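 note: 0% = median of negative and 100% = median of positive control wells; the first replicate is given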
HIV Env fusion: blocks HIV Env-driven cell-cell fusion | HeLa-JRFL Env/CEM21 cell fusion, luciferase | inhibition, % at 12.3 µM | actives 1.1% (n = 360,000) | AID 651610;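 active = mean replicate inhibition score of at least 50 and every replicate individually at or above 50; inconclusive = only one of the two criteria met; inactive = mean below 50 and not all replicates reaching 50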;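 note: 0% = plate neutral controls and 100% = maraviroc near 300 nM; one replicate is shown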
UUG fidelity: yeast start codon fidelity modulation | S. cerevisiae UUG-firefly luciferase reporter, luminescence/redox ratio | activity score, % at 18.7 µM | actives 0.13% (n = 350,000);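 active = replicate mean at a twofold rise or more, about +100% in these data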;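 note: firefly luciferase made from a UUG start codon reports start codon fidelity; reporter light over untreated wells divided by growth signal over untreated wells; some hits fall short of that in this replicate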
PABP polyA inh: PABP-poly(A) binding inhibition | actives 1% (n = 290,000) | inhibition, % at 35 µM | PABP-poly(A) RNA binding, fluorescence polarization | P11940 | AID 2014;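 active = 50% or more with normal probe brightness, or confirmed in later tests; inconclusive = above 50% with abnormal brightness, or retests that disagree; inactive = below 50% or failed in later tests; about a fifth of its hits are not listed in these tables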;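 note: calls also rest on retests at 20 µM and on dose response follow-up; controls were probe without protein and protein plus probe with vehicle; some compounds called inactive have numbers as strong as hits; many hits fall short of the cut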
Target sequence (P11940 whole entry, looked up): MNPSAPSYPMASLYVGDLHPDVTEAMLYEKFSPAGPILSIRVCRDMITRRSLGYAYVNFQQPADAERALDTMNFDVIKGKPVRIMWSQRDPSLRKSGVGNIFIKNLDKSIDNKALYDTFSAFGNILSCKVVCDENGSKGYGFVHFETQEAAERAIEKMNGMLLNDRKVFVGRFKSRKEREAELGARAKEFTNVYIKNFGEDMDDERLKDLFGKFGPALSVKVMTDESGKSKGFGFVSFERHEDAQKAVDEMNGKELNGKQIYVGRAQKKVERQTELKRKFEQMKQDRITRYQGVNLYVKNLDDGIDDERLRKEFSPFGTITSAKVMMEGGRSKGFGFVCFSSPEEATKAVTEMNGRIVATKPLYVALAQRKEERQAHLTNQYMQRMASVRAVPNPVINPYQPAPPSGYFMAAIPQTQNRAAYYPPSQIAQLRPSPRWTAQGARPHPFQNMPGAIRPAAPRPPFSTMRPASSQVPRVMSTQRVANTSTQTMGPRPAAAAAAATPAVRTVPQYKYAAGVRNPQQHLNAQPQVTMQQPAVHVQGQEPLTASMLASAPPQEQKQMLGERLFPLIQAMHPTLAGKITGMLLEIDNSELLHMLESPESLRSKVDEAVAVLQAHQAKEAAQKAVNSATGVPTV
Rce1 inh: blocks yeast Ras-converting enzyme. yeast membranes, quenched prenylated peptide cleavage fluorescence. calls only. actives 0.27% (n = 290,000);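 active = fall in fluorescence gain of 50% or more versus controls, with final raw signal at or below 3038400; inconclusive = same 50% fall but final raw signal above 3038400; inactive = fall in fluorescence gain under 50%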;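 note: plate controls were neutral control wells for no effect and wells lacking membranes for full effect; tested at 10 µM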
Target sequence (Q03530 whole entry, looked up): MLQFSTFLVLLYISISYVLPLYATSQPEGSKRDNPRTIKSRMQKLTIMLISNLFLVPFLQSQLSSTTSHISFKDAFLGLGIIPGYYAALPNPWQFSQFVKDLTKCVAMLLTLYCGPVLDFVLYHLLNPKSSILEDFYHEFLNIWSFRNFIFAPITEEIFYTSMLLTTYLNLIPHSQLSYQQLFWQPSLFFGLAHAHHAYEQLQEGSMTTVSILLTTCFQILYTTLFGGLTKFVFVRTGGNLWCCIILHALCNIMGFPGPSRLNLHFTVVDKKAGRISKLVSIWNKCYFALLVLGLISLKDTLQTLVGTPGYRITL
MT1-MMP act inh RFP: recorded beside MT1-MMP act inh, whose call it bears; RFP signal change, %; measured here: RFP expression control read;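 0 = vehicle wells; hits needed this value within 50% of zero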
* hit, by the source's call; i = inactive; ? = inconclusive; / = no result given.

SMILES | MT1-MMP act inh | MT1-MMP act inh RFP | eIF4H inh | CSC inhib | HIV Env fusion | UUG fidelity | PABP polyA inh | Rce1 inh
Nc1cn(C2OC(CO)C(O)C2O)c(=O)[nH]c1=O (configuration not stated) | -2 | 2 | -3 | -9 | -12 | -5 | -4 | i
O=C(NCc1ccncc1)Nc1cccc([N+](=O)[O-])c1 | 3 | 1 | -15 | -2 | 10 | / | -11 | i
CCN(CC)C(=O)Cn1cnc2sc(C(=O)Nc3cc(OC)c(OC)c(OC)c3)c(C)c2c1=O | 1 | 3 | -6 | -3 | -72 | 7 | 5 | i
O=C(O)CN1C(=O)C=CC1=O | -1 | 4 | / | / | i | -6 | / | /
CCC(C)Cn1c(C(C)C)nc2ccccc21 (configuration not stated) | -5 | 1 | -4 | -10 | 5 | / | -6 | i
Cc1ccc(-c2nnc(SCC(=O)N/N=C/c3ccccc3C(=O)O)n2C2CCCCC2)cc1 | 1 | 4 | -4 | 2 | 7 | -14 | 17 | i
O=C(NC1CC1)c1cccc(NC(=O)C2CCCCC2)c1 | 2 | 2 | / | / | ? | -14 | / | /
CCc1c(C)c(C#N)c2nc3ccccc3n2c1NCCCN(C)C | -7 | -3 | / | / | -8 | -18 | / | /
CCOC(=O)c1cn[nH]c1NC(=S)Nc1ccc(OC)cc1 | 6 | 4 | -8 | 6 | -154 | -74 | 2 | i
C=CCn1c(SCC(=O)Nc2ccccc2)nnc1-c1cccc(S(=O)(=O)N2CCOCC2)c1 | 0 | -1 | 7 | -9 | / | -4 | -4 | i
O=C(CSc1ccc2nnc(-c3ccccn3)n2n1)Nc1ccc(F)cc1F | 3 | 2 | 4 | -16 | -247 | -12 | 6 | i
Cn1c(SCC(=O)Nc2cccnc2)nnc1-c1ccccc1F | 6 | -3 | -10 | / | -20 | -11 | 10 | i
O=C(CN1CC(=O)Oc2ccccc21)OCC(=O)c1ccc(F)cc1 | 0 | 2 | 5 | 11 | -35 | / | 4 | i
Cc1ccc(C(=O)N2CCCC2(C)C(=O)NCC(C)C)cc1F (configuration not stated) | 0 | 8 | / | / | -17 | -12 | / | /
O=C(c1ccccc1-c1ccccc1)N1CCN(c2ccccn2)CC1 | -13 | -17 | -7 | 58 | 15 | 14 | 1 | i
COc1cc(C(=O)NCCc2cn3ccc(C)cc3n2)cc(OC)c1OC | 4 | 6 | -1 | -12 | -5 | -24 | -3 | i
O=C(NCc1ccccc1)C(c1ccccc1)N(C(=O)c1csnn1)C1CC1 (configuration not stated) | -3 | 5 | 2 | 12 | -4 | / | 1 | i
O=C(NC(Cc1ccccc1)C(=O)O)/C(=C/c1cccc(Br)c1)NC(=O)c1ccco1 (configuration not stated) | 0 | 0 | 1 | -2 | -2 | 5 | 0 | /
COc1cccc(CNc2ccc(F)c(Cl)c2)c1OC | 3 | -1 | 2 | -3 | / | -17 | 4 | i
O=[N+]([O-])c1cccc(-c2noc(COc3ccccc3)n2)c1 | 3 | 2 | -4 | 6 | -4 | / | -13 | i
COc1ccc(N(C(=O)c2ccco2)C(C(=O)NC2CCCC2)c2ccccc2)cc1 (configuration not stated) | -1 | -1 | -5 | 3 | 9 | 17 | 0 | i
CN1CCN(C(CNS(=O)(=O)c2cccs2)c2cccnc2)CC1 (configuration not stated) | 0 | 0 | -3 | -15 | / | -11 | -9 | i
O=C(OCC(=O)c1c[nH]c2ccccc12)c1ccc(F)c(S(=O)(=O)N2CCOCC2)c1 | 3 | -3 | / | / | 18 | -14 | / | /
O=C(CN1C2CCCC1CC(NC(=O)C1CCCCC1)C2)Nc1ccccc1C(F)(F)F (configuration not stated) | -2 | -19 | 1 | -7 | 5 | -14 | -1 | i

Complete entries, quoted from the list. Values in the order: MT1-MMP act inh | MT1-MMP act inh RFP | eIF4H inh | CSC inhib | HIV Env fusion | UUG fidelity | PABP polyA inh | Rce1 inh
O=C(c1ccccc1-c1ccccc1)N1CCN(c2ccccn2)CC1 as listed: -13 | -17 | -7 | 58 | 15 | 14 | 1 | i
COc1ccc(N(C(=O)c2ccco2)C(C(=O)NC2CCCC2)c2ccccc2)cc1 (configuration not stated) as listed: -1 | -1 | -5 | 3 | 9 | 17 | 0 | i

Later entries.
SMILES | MT1-MMP act inh | MT1-MMP act inh RFP | eIF4H inh | CSC inhib | HIV Env fusion | UUG fidelity | PABP polyA inh | Rce1 inh
O=C(CSc1nnc(NC(=O)c2ccc(F)cc2)s1)NCc1ccco1 | 7 | 0 | 3 | 27 | -26 | -9 | -9 | i
CN1CCN(/N=C/c2ccc(N(C)c3ccccc3)cc2)CC1 | 1 | 0 | -2 | 46 | 5 | -8 | 8 | i
O=C(Cc1ccc(Cl)c(Cl)c1)Nc1cccnc1 | 4 | -7 | 3 | / | 0 | -7 | 14 | i
CC(OC(=O)CN1C(=O)NC2(CCCC2)C1=O)C(=O)c1ccc(C(C)(C)C)cc1 (configuration not stated) | 2 | -4 | / | / | -293 | / | / | i
CCCCn1c(=N)n(CC(O)COc2cccc(C)c2)c2ccccc21 (configuration not stated) | / | / | -1 | 6 | -135 | -2 | -12 | i
O=C(c1ccc(Cl)c(Cl)c1)N1CCC(O)(CN2CCOCC2)CC1 | -5 | 0 | -5 | 4 | -12 | / | -8 | i
O=C(COC(=O)/C=C/c1cccc(F)c1)Nc1ccccc1 | -3 | 0 | -1 | -6 | 4 | -3 | 7 | i
O=C(c1cc(F)c(F)cc1Cl)N1CCCCC1 | -1 | 0 | -4 | 2 | / | -10 | -11 | i
CC(=O)Oc1cccc(C(=O)Nc2ccc(NC(=O)c3cccs3)cc2)c1 | 5 | 1 | -11 | 14 | -65 | -6 | 1 | i
CCCOc1ccc(C(=O)CCC(=O)OCC(=O)Nc2ccc(Oc3ccccc3)cc2)cc1 | / | / | -8 | -9 | / | / | 8 | i
Cc1nc2ccc(C(=O)N(C)CC3CCCN(CCc4ccc(Cl)cc4)C3)cc2[nH]1 (configuration not stated) | 0 | 4 | -4 | -5 | -5 | -22 | -7 | i
Cc1ccccc1CC1(CO)CCCN(C(=O)c2ccc(F)cc2)C1 (configuration not stated) | -6 | -4 | 4 | -6 | 8 | -7 | -5 | i
Cc1cccc(-c2n[nH]c(=S)n2/N=C/c2ccco2)c1 | 0 | 0 | -15 | -1 | -5 | -15 | -1 | /
Cc1occc1C(=O)NCCCc1ccccc1 | 1 | 3 | 2 | 0 | / | -14 | 0 | i
CC(C)[C@H](NC(=O)[C@@H]1Cc2c([nH]c3ccccc23)C2c3ccccc3C(=O)N21)C(=O)NCC1CCCO1 (some centres not stated) | -2 | 0 | 8 | -11 | / | 24 | 16 | i
Cn1c(=O)n(Cc2ccccc2)c(=O)c2c1nc1n2CCS1 | -1 | -7 | -5 | / | -23 | -8 | -3 | i
CCN(CC)P(=O)(Nc1ccc(Br)cc1)c1c(C)nn(CCC#N)c1NC(=O)c1ccc(Cl)cc1 (configuration not stated) | 2 | -3 | -4 | / | 14 | -4 | 4 | i
Cc1cc(=O)oc2cc(O)c(N=Nc3ccccc3)cc12 | 5 | 5 | 3 | 14 | -7 | -25 | -6 | i
CCOC(=O)c1c(C)[nH]c(C)c1S(=O)(=O)N1CCN(c2ccc([N+](=O)[O-])cc2)CC1 | -5 | -2 | 1 | -2 | 8 | -11 | -3 | i
Cc1cccc(NC(=O)C(=O)NCCCN2CCOCC2)c1 | 0 | 4 | -21 | -8 | 5 | / | 12 | i
Cn1nc(C(C)(C)C)cc1C(=O)N1CCCC(c2cc(C(=O)Nc3ccccc3Cl)no2)C1 (configuration not stated) | -5 | -10 | / | / | 12 | -3 | / | /
O=C1C2C3C=CC(CC3)C2C(=O)N1c1ccccc1 (configuration not stated) | 3 | -1 | 19 | -14 | -17 | -16 | 13 | i
COc1ccc(-n2ncc3c2CC(C)(C)CC3NC(=O)c2ccnn2C)cc1 (configuration not stated) | 2 | -4 | 0 | -14 | -3 | -12 | -9 | i
COc1ccc(-c2nn(-c3ccccc3)cc2CNC[C@H]2O[C@@H](n3ccc(=O)[nH]c3=O)[C@H](O)[C@@H]2O)cc1 | 5 | 5 | / | / | -5 | -11 | / | /
CC1CCCC(NC(=O)Cn2cc(Br)ccc2=O)C1C (configuration not stated) | -4 | 0 | / | -2 | 0 | -5 | / | /
CCN1CCc2c(sc(NC(=O)c3cc4ccccc4cc3OC)c2C(N)=O)C1 | -8 | 2 | ? | 24 | 27 | -3 | 11 | i
Cc1csc(SCC(=O)Nc2cc(C(C)(C)C)nn2-c2ccccc2)n1 | -1 | 1 | -3 | 5 | -5 | -11 | 6 | i
Cc1ccc(S(=O)(=O)N2CCN(C(=O)[C@H](Cc3ccccc3)NC(=O)c3ccco3)CC2)cc1C | -5 | -6 | / | 18 | / | 3 | / | /
O=C(Cn1nnc(-c2ccccc2F)n1)NCc1ccco1 | 3 | 6 | 7 | -7 | -11 | / | -12 | i
CCOC(=O)c1csc(NC(=O)CSc2nnnn2-c2ccc3c(c2)OCCO3)n1 | 5 | -13 | 2 | -7 | / | -5 | -1 | /
O=C1CSC(c2ccccc2)N1c1ccc([N+](=O)[O-])cc1 (configuration not stated) | -4 | -3 | -3 | -7 | 16 | 4 | -1 | i
CC(C)N(C(=S)Nc1ccc(S(=O)(=O)N2CCOCC2)cc1)c1ccccc1 | 1 | 1 | / | -10 | / | -12 | / | /
Cc1ccccc1N1Cc2ccccc2C1 | -2 | 2 | 3 | -4 | -27 | / | -9 | i
CS(=O)(=O)CCSc1ncccc1C(=O)NCc1cccs1 | 3 | 4 | -7 | -10 | -6 | -11 | 11 | i
Cc1cccn2c(=O)nc(SCC(=O)N3CCC(Cc4ccccc4)CC3)nc12 | 2 | -3 | / | 1 | 14 | -3 | / | i
O=C(O)c1ccc(SCc2cnc(Cl)s2)cc1 | -10 | 0 | 12 | -17 | -27 | / | -2 | i
COCCNC(=S)N1CCN(c2cccc(C)c2C)CC1 | 3 | -2 | -6 | / | 4 | / | -2 | i
CCCn1nc(C(=O)OCC(=O)c2ccccc2)c2ccccc2c1=O | 4 | 1 | -6 | / | 0 | / | -2 | i
COc1cccc(C(=O)Nc2sc3c(c2C(=O)O)CCCC3)c1 | -16 | -10 | 4 | 28 | 2 | -7 | 6 | i
CC(=O)c1ccc(N(CC(=O)NC2CCCCC2)C(=O)CNC(=O)c2ccco2)cc1 | 1 | 2 | -9 | / | -10 | -9 | 0 | i
COc1ccc(CN2CCC(n3nccc3NC(=O)CCOc3ccccc3)CC2)cc1C | 3 | -5 | 5 | 2 | 6 | 15 | 22 | i
O=C(c1ccc(Br)o1)N1CC=C(c2ccccc2)CC1 | -5 | -1 | / | -9 | 8 | / | / | /
O=C(Nc1ccccc1N1CCOCC1)C1CCN(S(=O)(=O)c2cccc(C(F)(F)F)c2)CC1 | -4 | -5 | 2 | 3 | 8 | / | -6 | i
C/C=C/c1ccc(OCC(=O)OCc2csc(CC(=O)Nc3ccccc3C)n2)c(OC)c1 | 2 | 5 | 2 | 1 | -5 | -8 | -13 | i
CC(C)(C)OC(=O)N1CCOCCOCCN(C(=O)OC(C)(C)C)CCOCCOCC1 | 4 | 3 | -5 | 7 | -6 | / | -2 | i
COc1ccccc1NC(=O)Cn1cc(C#N)c2ccccc21 | 10 | 5 | -13 | 10 | 11 | -16 | -8 | i
Nc1nc(N2CCOCC2)nc2ccccc12 | -4 | 4 | -11 | -8 | / | -14 | 13 | i
CCOc1ccc(C(=O)Nc2ccc3c(c2)OCCO3)cc1OC | 8 | -1 | -5 | 9 | / | 2 | -5 | i
Cc1ccc2c(CN3CCN(Cc4ccccc4)CC3)cc(=O)oc2c1 | -2 | 0 | -9 | 3 | 3 | -10 | -2 | i
CCOC(=O)N1CCN(C(=O)c2cnc3n(c2=O)CCS3)CC1 | 5 | 4 | -2 | -10 | / | -9 | -4 | i
